Six1-Eya2 inh = blocks human Six1 binding to Eya2. AlphaScreen GST-Six1/His-Eya2 binding, biochemical; hits give low values; control for the full effect not named in the record. activity change, % (no concentration beside the values). actives 0.56% (n = 360,000). Q15475+O00167; in the data active = activity change below about -65%; inconclusive = about -30% to -65%; inactive = above about -30%; note: % is set by controls: 0 for no effect and ±100 for the full control effect; compound concentration not given in the record
Target sequence (O00167 whole entry, looked up): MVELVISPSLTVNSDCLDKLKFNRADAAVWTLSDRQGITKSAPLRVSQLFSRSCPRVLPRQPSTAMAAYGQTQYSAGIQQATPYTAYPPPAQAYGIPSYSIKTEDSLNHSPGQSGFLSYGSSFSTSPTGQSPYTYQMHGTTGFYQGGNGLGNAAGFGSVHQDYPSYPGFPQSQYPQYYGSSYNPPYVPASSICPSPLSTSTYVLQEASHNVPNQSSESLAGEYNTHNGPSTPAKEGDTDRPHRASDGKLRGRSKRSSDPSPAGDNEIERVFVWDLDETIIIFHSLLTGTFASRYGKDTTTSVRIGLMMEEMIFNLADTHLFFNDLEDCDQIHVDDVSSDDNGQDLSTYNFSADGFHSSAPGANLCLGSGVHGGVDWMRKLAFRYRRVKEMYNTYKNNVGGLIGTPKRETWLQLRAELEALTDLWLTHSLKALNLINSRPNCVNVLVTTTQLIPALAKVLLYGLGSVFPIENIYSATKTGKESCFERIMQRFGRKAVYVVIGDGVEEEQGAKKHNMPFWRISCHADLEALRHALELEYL
Target sequence (Q15475 whole entry, looked up): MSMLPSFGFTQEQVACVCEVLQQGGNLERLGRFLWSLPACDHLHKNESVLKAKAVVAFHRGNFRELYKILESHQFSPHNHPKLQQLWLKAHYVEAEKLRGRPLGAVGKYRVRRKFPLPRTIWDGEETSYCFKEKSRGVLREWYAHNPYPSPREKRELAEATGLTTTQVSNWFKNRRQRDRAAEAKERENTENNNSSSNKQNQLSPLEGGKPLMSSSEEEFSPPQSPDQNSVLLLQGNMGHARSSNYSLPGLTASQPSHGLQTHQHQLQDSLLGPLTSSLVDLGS
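Six1/Eya2 binding was read as AlphaScreen signal after compounds were pinned into GST-Six1 plus His-tagged Eya2 (5X stock 250/500 nM) in pH 8.0 Tris/NaCl/TCEP buffer, beads added, then incubated 1 h, 37 C, dark.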
TRPML1 agonist = activates the human TRPML1 channel; Q9GZU1; TRPML1-expressing cells, Ca2+ dye fluorescence, FDSS; host cell line not named in the record; reference of the full effect not given here; activation, % (test concentration not listed); actives 0.12% (n = 410,000); AID 624414; in the data active = activation above about 50%; inconclusive = about 30% to 50%; inactive = below about 30%; note: 0% is about no effect; the text of the record puts the active cut at 80%
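Kinetic FDSS Ca2+ read in Tet-induced TRPML1-DL cells (ABD Ca8 dye plus quencher, 45-90 min RT loading): baseline, then compound, then 110 s agonist window; EC80 agonist 54-4 at 4uM final added afterwards for a 110 s antagonist window.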
D2 agonist = human D2 receptor agonism in beta-arrestin assay. activation, % (concentration not given with the values). P14416. DiscoveRx PathHunter D2 beta-arrestin, luminescence, 90 min; 100% = 57 uM dopamine signal. AID 624465. actives 0.084% (n = 360,000); in the data active = activation above about 40%; inconclusive = about 15% to 40%; inactive = below about 15%; note: compound concentration not given in the record; the text of the record calls up to 30% inactive
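Agonist mode: compounds alone added to overnight-plated D2 PathHunter cells for 90 min at 37 C, with 57 uM final dopamine (EC100) defining full response. Beta-arrestin recruitment detected by chemiluminescent reagent, read after 1 h at ambient temperature.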
D2 PAM = human D2 receptor positive allosteric modulation. P14416. DiscoveRx D2 beta-arrestin cells, luminescence, 90 min; 100% = 57 uM dopamine signal. potentiation, % (test concentration not listed). actives 0.23% (n = 360,000). AID 624464; active = potentiation of 50% or more; inconclusive = 30% to 50%; inactive = 30% or less;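 note: compound concentration not given in the record; tested on top of an EC20 dose of dopamine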
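PathHunter D2 cells, attached overnight at 37 deg C, received compound in DMSO plus dopamine at EC20 (50 nM final) for 90 min at 37 deg C. Beta-arrestin recruitment was read as luminescence after 1 h with detection reagent at ambient temperature.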
TRPML1 blocker = blocks the human TRPML1 channel; Q9GZU1; TRPML1-inducible cells, Ca2+ dye fluorescence, FDSS; hits give low values; inhibition of EC80 agonist-evoked calcium signal; activity change, negative = inhibition, % (concentration not given with the values); actives 0.02% (n = 390,000); in the data active means activity change below about -50%; inconclusive means about -30% to -50%; inactive means above about -30%;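 note: stimulus is agonist 54-4 at its EC80 concentration; % is set by controls: 0 for no effect and ±100 for the full control effect; compound concentration not given in the record; the text of the record puts the active cut at -80%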
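Calcium fluorescence in TRPML1-DL cells induced overnight with Tet: a 110 s read after compound pin addition, then a 110 s antagonist read after challenge with 54-4 at 4 uM final (EC80).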
PINK1 expr mod = PINK1 expression modulation; actives 0.2% (n = 410,000); PINK1 immunofluorescence, high-content cytometry, 24 h; Potency, µM (top dose mostly 76.6 µM), without a hit: top-dose activation (PINK1 increase), actives largely listed as activators; active = well fitted activation curve with a large enough effect; inconclusive = small, poorly fitted or top-dose-only effect; inactive = flat fitted curve, though single readings scatter; cell line not stated here;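 note: potency is the fitted concentration of half-maximal effect; % of control where 0% means no effect; nearly all actives have a fitted effect of over 65% in size; a mitochondrial uncoupler was the plate control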
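Stable cell line, 250 cells/well, 12 h attachment; compounds pinned at 5 concentrations, 24 h; CCCP control. Fixed with nuclear dye, primary antibodies 12 h at 10 degrees C, secondary plus cell stain; laser-scanning cytometer read.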
The depositor's hits bear a star; & = joins results of further samples; [ ] = dose if it differs, or a comment.

How did O=C(/C=C/c1cccs1)Nc1ccc(N2CCOCC2)c(S(=O)(=O)Nc2ccccc2Cl)c1 do in these assays?
Six1-Eya2 inh: -15.1; TRPML1 agonist: 0.3; D2 agonist: 0.0; D2 PAM: -2.4; TRPML1 blocker: -5.9; PINK1 expr mod: -1.5%

How did CCOC(=O)CN1CC23C=CC(O2)C(C(=O)NC2CCCCCC2)C3C1=O (stereo unspecified) do in these assays?
Six1-Eya2 inh: 23.6; TRPML1 agonist: 0.6; D2 agonist: 2.3; D2 PAM: -5.2; TRPML1 blocker: 6.6; PINK1 expr mod: -0.4%

What do the screens show for `CCOC(=O)c1c(NC(=O)C(F)(OC)C(F)(F)F)sc(C(=O)N2CCCCC2)c1C` (stereo unspecified)?
Six1-Eya2 inh: 8.0; TRPML1 agonist: -0.1; D2 agonist: -0.4; D2 PAM: -3.5; TRPML1 blocker: 13.5; PINK1 expr mod: 0.5%

How did Oc1ccc(Cl)cc1N=Nc1ccccc1 do in these assays?
Six1-Eya2 inh: -16.9; D2 agonist: -2.0; D2 PAM: 12.8; PINK1 expr mod: 7.7%

Results for Cc1ccc(C2CC(c3cccs3)=NN2C(=O)CSc2nc(=O)n3cc(C)ccc3n2)cc1 (stereo unspecified) ?
Six1-Eya2 inh: -18.0; TRPML1 agonist: 0.1; D2 agonist: -4.2; D2 PAM: -0.4; TRPML1 blocker: 5.9; PINK1 expr mod: 0.3%

Results for Cc1cc(C)c(NC(=O)CNC(=O)c2ccccc2SCC(=O)N2CCCC2)c(C)c1 ?
Six1-Eya2 inh: 6.8; TRPML1 agonist: 0.1; D2 agonist: -6.0; D2 PAM: -2.5; TRPML1 blocker: 3.7; PINK1 expr mod: -0.9%

Results for CCOC(=O)c1c(S(=O)(=O)NCC(=O)Nc2cc(C)ccc2C)c(C)n(C)c1C ?
Six1-Eya2 inh: 1.7; TRPML1 agonist: -1.0&2.0; D2 agonist: -3.5; D2 PAM: -11.9; TRPML1 blocker: -8.6&-1.5; PINK1 expr mod: 0.7%&1.4%

Results for Fc1ccc(-c2nnc(CN3CCN(c4ccccn4)CC3)o2)cc1 ?
TRPML1 agonist: -0.3; TRPML1 blocker: -1.9; PINK1 expr mod: -0.4%

How did O=C(c1ccc2c(Cl)c3c(nc2c1)CCCC3)N1CCN(c2ccccc2)CC1 do in these assays?
TRPML1 agonist: 2.5; TRPML1 blocker: -25.8; PINK1 expr mod: 2.0%

What do the screens show for `N#Cc1c2c(c(NCc3ccco3)n3c1nc1ccccc13)CCC2`?
Six1-Eya2 inh: 0.3; TRPML1 agonist: -0.4; D2 agonist: -1.9; D2 PAM: -1.8; TRPML1 blocker: 7.4; PINK1 expr mod: 17.9%

Results for O=S(=O)(NC1CCCCCC1)c1cccc2cccnc12 ?
Six1-Eya2 inh: -0.7; TRPML1 agonist: -0.1; D2 agonist: 0.6; D2 PAM: -4.7; TRPML1 blocker: -3.6; PINK1 expr mod: 10.6%[38.3 µM]

Results for O=C(Oc1ccc(=O)n(-c2ccccc2)n1)c1ccc(F)cc1 ?
Six1-Eya2 inh: inconclusive; TRPML1 agonist: 0.1; D2 agonist: -2.8; D2 PAM: 4.4; TRPML1 blocker: -20.9; PINK1 expr mod: 1.5%

How did Cn1c(CNC(=O)c2ccccc2F)nnc1SCc1ccc(F)cc1 do in these assays?
Six1-Eya2 inh: 4.2; TRPML1 agonist: 0.4; D2 agonist: -7.2; D2 PAM: -6.2; TRPML1 blocker: 11.2; PINK1 expr mod: -0.9%

What do the screens show for `CC(C)C(NC(=O)c1ccccc1)C(=O)NC1CCCc2ccccc21` (stereo unspecified)?
Six1-Eya2 inh: -1.5; TRPML1 agonist: 1.5; D2 agonist: 1.7; D2 PAM: 1.3; TRPML1 blocker: -5.0; PINK1 expr mod: 1.8%

How did O=C(COC(=O)c1cc(S(=O)(=O)N2CCOCC2)ccc1Cl)NC1CC1 do in these assays?
Six1-Eya2 inh: 4.1; TRPML1 agonist: 0.5; D2 agonist: -1.2; D2 PAM: 3.1; TRPML1 blocker: -3.7; PINK1 expr mod: 0.6%

How did CC(=O)N1CCc2c(sc(NC(=O)CSc3ccccc3)c2-c2nc3ccccc3s2)C1 do in these assays?
TRPML1 agonist: 2.8; TRPML1 blocker: 36.1; PINK1 expr mod: 5.2%

Results for Clc1ccc(CSc2nc(NCCc3ccccc3)c3ccccc3n2)cc1 ?
TRPML1 agonist: 4.4; TRPML1 blocker: 30.9; PINK1 expr mod: 0.0%

What do the screens show for `CC(=O)OCCC(C)C`?
Six1-Eya2 inh: 7.1; D2 agonist: -8.0; D2 PAM: -32.7; PINK1 expr mod: -0.6%

How did CCN(C(=O)CN1C(=O)/C(=C/c2ccccc2)SC1=S)C1CCS(=O)(=O)C1 (stereo unspecified) do in these assays?
Six1-Eya2 inh: -0.5; TRPML1 agonist: -0.5; D2 agonist: -1.2; D2 PAM: -3.9; TRPML1 blocker: -12.5; PINK1 expr mod: 9.2%

How did Cc1ccc(S(N)(=O)=O)cc1NC(=O)C1CC2CCC1C2 (stereo unspecified) do in these assays?
Six1-Eya2 inh: 5.4; TRPML1 agonist: 0.1; D2 agonist: -0.6; D2 PAM: -4.7; TRPML1 blocker: 34.9; PINK1 expr mod: 0.1%[38.3 µM]

Looked up by structure from the entries so far (2):
How did O=C(/C=C/c1cccs1)Nc1ccc(N2CCOCC2)c(S(=O)(=O)Nc2ccccc2Cl)c1 do in these assays?
Six1-Eya2 inh: -15.1; TRPML1 agonist: 0.3; D2 agonist: 0.0; D2 PAM: -2.4; TRPML1 blocker: -5.9; PINK1 expr mod: -1.5%

What do the screens show for `CC(C)C(NC(=O)c1ccccc1)C(=O)NC1CCCc2ccccc21` (stereo unspecified)?
Six1-Eya2 inh: -1.5; TRPML1 agonist: 1.5; D2 agonist: 1.7; D2 PAM: 1.3; TRPML1 blocker: -5.0; PINK1 expr mod: 1.8%

(next part)
How did CCCCNc1nc(CC)c2c(c1C#N)CCCC2 do in these assays?
Six1-Eya2 inh: -3.1; TRPML1 agonist: 0.3; D2 agonist: -4.4; D2 PAM: -18.0; TRPML1 blocker: 3.7; PINK1 expr mod: 2.9%

How did CCCCOC(=O)C1=C(C)NC(=O)NC1c1cc2c(cc1Br)OCO2 (stereo unspecified) do in these assays?
Six1-Eya2 inh: -8.7; TRPML1 agonist: 0.7; D2 agonist: -1.8; D2 PAM: -3.2; TRPML1 blocker: 17.1; PINK1 expr mod: 0.9%

Results for COc1cc(N(C(C)=O)c2ccc(O)cc2)c2ncccc2c1 ?
Six1-Eya2 inh: -2.2; TRPML1 agonist: -0.5; D2 agonist: -1.6; D2 PAM: 0.3; TRPML1 blocker: -3.7; PINK1 expr mod: 0.2%

Results for CC1CCCCC1NC(=S)NC(=O)c1cccs1 (stereo unspecified) ?
Six1-Eya2 inh: -19.8; TRPML1 agonist: 3.2; D2 agonist: -1.2; D2 PAM: -14.3; TRPML1 blocker: -6.1; PINK1 expr mod: 7.8%

What do the screens show for `Cc1c(C(=O)NCc2ccc(F)cc2)c(-c2ccccc2)nn1-c1ccccc1`?
Six1-Eya2 inh: -1.7; TRPML1 agonist: -0.4; D2 agonist: -2.8; D2 PAM: -8.5; TRPML1 blocker: 7.2; PINK1 expr mod: 3.4%

What do the screens show for `COc1cc(-c2nnc(SCC(=O)Oc3ccc(C)cc3C)o2)cc(OC)c1OC`?
TRPML1 agonist: -0.5; TRPML1 blocker: 47.8; PINK1 expr mod: 0.9%

What do the screens show for `Cc1nn2c(NCCCN3CCOCC3)c3c(nc2c1-c1ccccc1)CCC3`?
Six1-Eya2 inh: -14.6; TRPML1 agonist: -1.2; D2 agonist: -3.6; D2 PAM: -1.6; TRPML1 blocker: 27.8; PINK1 expr mod: 1.2%

What do the screens show for `NC(=O)/C=C/C(=O)Nc1ccc(Cl)cc1`?
Six1-Eya2 inh: 10.1; TRPML1 agonist: 0.1; D2 agonist: -2.2; D2 PAM: -1.7; TRPML1 blocker: 8.4; PINK1 expr mod: 0.1%

Results for Cc1ccccc1-c1cc2nc(C)c(C)c(=O)n2[nH]1 ?
Six1-Eya2 inh: -12.7; TRPML1 agonist: 0.5; D2 agonist: -1.4; D2 PAM: -8.8; TRPML1 blocker: 14.5; PINK1 expr mod: 2.5%

How did COc1ccc(CNCC(O)(c2ccccc2)c2ccc(F)cc2)cc1OC (stereo unspecified) do in these assays?
Six1-Eya2 inh: 1.5; TRPML1 agonist: 3.9; D2 agonist: -2.6; D2 PAM: -4.2; TRPML1 blocker: -3.7; PINK1 expr mod: 0.1%

How did CCOC(=O)C1(Cc2cccc(OC)c2)CCCN(C(=O)c2cc(CC(C)C)[nH]n2)C1 (stereo unspecified) do in these assays?
Six1-Eya2 inh: 17.1; TRPML1 agonist: 0.0; D2 agonist: -0.8; D2 PAM: -8.2; TRPML1 blocker: 28.9; PINK1 expr mod: 0.0%

How did O=C(c1ccc(-n2nc(C(F)(F)F)c3c2CCCC3)cc1)N1CCOCC1 do in these assays?
Six1-Eya2 inh: 8.9; TRPML1 agonist: 1.3; D2 agonist: -3.7; D2 PAM: -5.7; TRPML1 blocker: 15.6; PINK1 expr mod: 3.1%

How did O=C(C1CCN(S(=O)(=O)c2ccc(Cl)cc2)CC1)N1CCCCCCC1 do in these assays?
Six1-Eya2 inh: 2.7; TRPML1 agonist: 0.0; D2 agonist: -1.0; D2 PAM: -10.4; TRPML1 blocker: 11.2; PINK1 expr mod: -1.1%

Results for Cc1ccc(CS(=O)(=O)c2ccc(C(=O)N3CCCCC3)cc2[N+](=O)[O-])cc1 ?
Six1-Eya2 inh: 0.9; TRPML1 agonist: -1.1; D2 agonist: 0.2; D2 PAM: 4.9; TRPML1 blocker: 10.4; PINK1 expr mod: -0.3%

Results for Cc1cc(OCC(=O)NCc2cccnc2)c2c(C)cc(=O)oc2c1 ?
Six1-Eya2 inh: -1.8; TRPML1 agonist: -1.0; D2 agonist: -1.8; D2 PAM: -6.9; TRPML1 blocker: 26.8; PINK1 expr mod: 0.1%

How did O=S(=O)(Nc1ccc2c(c1)OCO2)c1ccc(F)c(F)c1 do in these assays?
Six1-Eya2 inh: 4.2; TRPML1 agonist: 0.9; D2 agonist: -6.6; D2 PAM: -2.9; TRPML1 blocker: 18.1; PINK1 expr mod: -0.1%

How did O=C(Nc1cccc(Cl)c1)Nc1ccccc1NS(=O)(=O)c1cccs1 do in these assays?
Six1-Eya2 inh: inconclusive; TRPML1 agonist: -0.5; D2 agonist: 2.3; D2 PAM: -6.3; TRPML1 blocker: 8.9; PINK1 expr mod: inconclusive

What do the screens show for `CN1C(=O)CC(N2CCN(c3ccccn3)CC2)C1=O` (stereo unspecified)?
Six1-Eya2 inh: 4.7; TRPML1 agonist: -0.5; D2 agonist: -4.3; D2 PAM: 0.7; TRPML1 blocker: 6.1; PINK1 expr mod: 0.6%

Results for CCCCN(CC)CCCNC(=O)c1cc2c(=O)n(CC)c3ccccc3c2s1 ?
Six1-Eya2 inh: 2.2; TRPML1 agonist: -0.4; D2 agonist: -4.4; D2 PAM: -2.8; TRPML1 blocker: -3.6; PINK1 expr mod: -1.1%

Source: PubChem BioAssay (National Center for Advancing Translational Sciences (NCATS))

Rows were taken by chance. Share with any hit: about 1%.
